GIRK2 activ = activators of human GIRK2 potassium channels; G protein-activated inward rectifier potassium channel 2 (Homo sapiens), P48051; HEK293-GIRK2 thallium flux, Thallos fluorescence; calls only for hits at 25 µM; 63,000 tested, 0.05% active; AID 1259325, 2017;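 active means among the strongest 0.2% of first-round signals and kept after retests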;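 further: first round at about 10 µM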
Target sequence (P48051 whole entry, looked up): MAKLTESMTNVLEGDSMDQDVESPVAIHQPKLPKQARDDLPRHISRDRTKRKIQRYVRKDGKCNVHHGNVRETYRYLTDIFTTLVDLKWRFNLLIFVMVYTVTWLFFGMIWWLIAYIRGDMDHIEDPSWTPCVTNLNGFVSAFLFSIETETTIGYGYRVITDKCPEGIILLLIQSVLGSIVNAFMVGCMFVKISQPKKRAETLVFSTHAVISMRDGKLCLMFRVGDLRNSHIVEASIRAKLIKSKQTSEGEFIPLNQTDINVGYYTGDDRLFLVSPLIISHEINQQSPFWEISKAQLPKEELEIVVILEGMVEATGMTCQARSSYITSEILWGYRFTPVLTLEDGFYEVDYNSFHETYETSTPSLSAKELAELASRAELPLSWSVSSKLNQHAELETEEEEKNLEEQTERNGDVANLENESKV
Calls only; i = inactive. This is a subset. The share of hits here may be higher or lower than overall.

SMILES | GIRK2 activ
CSc1ccccc1C(=O)Nc1cccc2ccc(-n3cccc3)nc12 | i
O=C(C1CN(c2nc3c(C(F)(F)F)cccc3s2)C1)N1CCN(c2ccccc2O)CC1 | i
CC(C)(C)C(=O)Nc1c2c(nn1CC(=O)NCc1ccccc1)CSC2 | i
O=C(CSc1nccn1-c1cccc(C(=O)NCc2ccccc2)c1)Nc1ccccc1F | i
COc1ccc(NC(=O)CC2S/C(=N\N=C/c3ccc(O)c(OC)c3)NC2=O)cc1 (centres undefined) | i
CCCS(=O)(=O)N1CCN=C1SCc1cccc(Cl)c1 | i
CCc1ccc(NC(=O)Cn2nc(N3CCC(C)CC3)c3ccccc3c2=O)cc1 | i
COc1ccccc1N1CCN(c2nccnc2SCC(=O)Nc2c(C)cccc2C)CC1 | i
COc1cc(NC(=O)NCCNc2ccc(-n3cccc3)nn2)cc(OC)c1 | i
N#Cc1nc(-c2ccc(S(=O)(=O)N3CCOCC3)cc2)oc1NCCCn1ccnc1 | i
Cc1cn(-c2ccc(SCC(=O)Nc3cc(C(F)(F)F)ccc3Cl)nn2)cn1 | i
O=C(Nc1ccc(-c2cnc3n2CCC3)cc1)c1ccccc1Cl | i
COc1ccc(/C=C/c2nc(-c3ccc(C)cc3)no2)cc1 | i
CS(=O)(=O)c1ccc2nc(NC(=O)CCCSc3ccc(F)cc3)sc2c1 | i
COc1ccc(NC(=O)Nc2ccc(-c3csc4nc(C)cc(=O)n34)cc2)c(OC)c1 | i
COCCCn1cnc2c(-c3ccccc3)cn(CC(=O)Nc3cccc(C(F)(F)F)c3)c2c1=O | i
Cc1ccc(S(=O)(=O)NCC#CCN2CCCC2)c(C)c1 | i
COc1ccccc1NC(=O)NCC1(c2ccccc2)CCOCC1 | i
Cc1ccc2nc3c(cc(C(=O)N4CCCCCC4)n3Cc3ccccc3)c(=O)n2c1 | i
Cc1oc(-c2ccc([N+](=O)[O-])cc2)cc1C(=O)N(C)Cc1cc(=O)[nH]c2ccccc12 | i
COc1cccc(Oc2nccn3c(=O)n(CC(=O)Nc4ccc(C)cc4Cl)nc23)c1 | i
COc1cc([N+](=O)[O-])ccc1NC(=O)c1nnn(-c2ccc(C)cc2)c1C | i
O=C(NCCCS(=O)(=O)N1CCN(c2ncccn2)CC1)c1ccco1 | i
COC(=O)c1ccc(Oc2coc3c4c(ccc3c2=O)OCN(C2CCCC2)C4)cc1 | i
COc1ccccc1CCNC(=O)C(=O)c1cn(CC(=O)N2CCCCCC2)c2ccccc12 | i
Other structures:
SMILES | GIRK2 activ
Cc1ccc(NC(=O)C2CCN(S(=O)(=O)c3ccc(F)cc3)CC2)c(C(=O)c2ccccc2)c1 | i
Cc1cc(NC(=O)CSc2nnc(N3CCN(C(=O)Cn4cnc5ccccc54)CC3)s2)no1 | i
COc1ccc(OC)c(NC(=O)c2cc3cccnc3n(C)c2=O)c1 | i
COc1ccc(S(=O)(=O)NCCC(O)c2cccc3ccccc23)cc1Cl (centres undefined) | i
CC(C)(C)C(=O)Nc1ccc(C(=O)NCCNS(=O)(=O)c2ccc(Cl)cc2)cc1 | i
CCN(CC)CC(O)COc1cccc2ccccc12 (centres undefined) | i
COc1ccc(CNC(=O)c2ccc3c(=O)n(-c4ccc(F)cc4)c(N4CCCC4)nc3c2)cc1 | i
COC(=O)C1=COC(O[C@@H]2O[C@H](CO)[C@@H](O)[C@H](O)[C@H]2O)[C@H]2[C@@H]1[C@H](OC(=O)CCc1ccc(O)cc1)C[C@]2(C)O (some centres undefined) | i
Cc1c(Cl)cccc1NC(=O)Nc1ccc(Nc2cc(-n3cccn3)ncn2)cc1 | i
Cn1c(SCC(=O)c2ccc(Br)cc2)nc2c1c(=O)n(Cc1ccccc1)c(=O)n2C | i
Cc1ccc(S(=O)(=O)c2c(C)nn(C(C)(C)C)c2OC(=O)c2cc(C)cc(C)c2)cc1 | i
COCCN1CCC(NC(=O)c2cc(Cl)ccc2Cl)CC1 | i
CN(C)CC1CSCCCN1C(=O)Nc1ccc2c(c1)OCO2 (centres undefined) | i
COc1ccc(CNC(=O)Nc2ccc(-c3nc4ccccc4o3)cc2)cc1 | i
CCOC(=O)c1oc2cc(OC)ccc2c(=O)c1-c1ccc(Br)cc1 | i
Cc1oc(-c2ccc(Cl)cc2[N+](=O)[O-])cc1C(=O)Nc1cccc(F)c1 | i
CCN(CC)c1ccc(-c2noc(CN3CCN(c4ccccc4Cl)CC3)n2)cn1 | i
O=C(c1ccncc1)N1CCN(c2cc(Nc3ccccn3)ncn2)CC1 | i
COCCNC(=O)C(=O)NCC1OCCCN1S(=O)(=O)c1ccc(C)cc1 (centres undefined) | i
O=C1c2oc3ccccc3c(=O)c2C(c2ccccn2)N1Cc1ccccc1Cl (centres undefined) | i
CCCCC(=O)Nc1sc2c(c1-c1nc3ccccc3s1)CCN(C(C)=O)C2 | i
CCOc1ccccc1C(=O)NCC1CCN(C(=O)c2ccoc2)CC1 | i
COc1ccc(C(=O)Nc2ccc(N3CCCCC3=O)c(C)c2)cc1OC | i
Cc1nnc(C2CCCN(C(=O)COc3ccccc3)C2)s1 (centres undefined) | i
O=S(=O)(c1ccc2c(c1)OCCO2)N1CCC(Oc2nc3ccccc3s2)CC1 | i

An excerpt taken from the entries so far:
SMILES | GIRK2 activ
Cc1ccc(NC(=O)C2CCN(S(=O)(=O)c3ccc(F)cc3)CC2)c(C(=O)c2ccccc2)c1 | i
Cc1cc(NC(=O)CSc2nnc(N3CCN(C(=O)Cn4cnc5ccccc54)CC3)s2)no1 | i
COc1ccc(OC)c(NC(=O)c2cc3cccnc3n(C)c2=O)c1 | i
COc1ccc(S(=O)(=O)NCCC(O)c2cccc3ccccc23)cc1Cl (centres undefined) | i
CC(C)(C)C(=O)Nc1ccc(C(=O)NCCNS(=O)(=O)c2ccc(Cl)cc2)cc1 | i
CCN(CC)CC(O)COc1cccc2ccccc12 (centres undefined) | i

Further results
SMILES | GIRK2 activ
COc1ccc(C(=O)CSc2nnc(CCc3c(C)[nH]c(=O)n(C)c3=O)o2)cc1OC | i
O=C(c1cccs1)c1ccc(CNC(=O)C2CC2)s1 | i
O=C(NCCC1CCCCN1S(=O)(=O)c1cccs1)c1cc2ccccc2oc1=O (centres undefined) | i
CC(O)CN1CCN(S(=O)(=O)c2ccc(F)c(Cl)c2)CC1 (centres undefined) | i
COCCCn1cnc2c(-c3ccccc3)cn(CC(=O)Nc3cc(OC)ccc3OC)c2c1=O | i
O=C(N1CCC(Oc2cnccn2)CC1)C1(c2ccccc2)CCOCC1 | i
O=C(Nc1nc2c(s1)CN(C(=O)Cc1cccs1)CC2)c1ccoc1 | i
CC(C)S(=O)(=O)c1ccc(CC(=O)N2CCC(c3nnc(-c4ccco4)o3)CC2)cc1 | i
Cn1c(=O)[nH]c(=O)c2c1nc1n(-c3ccccc3)c(-c3ccc(Cl)cc3)cn21 | i
CSc1cccc(NC(=O)Cn2nc3c(Sc4ccccc4)nccn3c2=O)c1 | i
COc1ccc(Nc2nc(N3CCN(c4ccc(F)cc4)CC3)nc3n[nH]nc23)cc1 | i
Cc1cc(C)c(C(=O)NCCN2CCN(c3ccccc3F)CC2)c(C)c1 | i
C=CCN(CC=C)S(=O)(=O)c1ccc(C(=O)Nc2nc3c(s2)Cc2ccccc2-3)cc1 | i
O=C(NCC1CCN(c2ncccn2)CC1)NC1CCCCC1 | i
CC(=O)c1ccc(NC(=O)CC(C)n2nc(C)cc2C)cc1 (centres undefined) | i
CN1CCN(c2nnc(SCC(=O)Nc3ccccc3C(F)(F)F)s2)CC1 | i
CC(=O)N1CCc2c(sc(NC(=O)c3ccc([N+](=O)[O-])cc3)c2-c2nc3ccccc3s2)C1 | i
O=C(CN1CCN(c2cccc(Cl)c2)C1=O)NCCc1cccs1 | i
COc1ccc(-c2cncnc2-c2ccc(OCc3ccc(C)cc3)cc2O)cc1OC | i
Cc1cc(C(=O)NCC2(c3ccccc3)CCOCC2)no1 | i
COc1cccc2c(SCC(=O)N(C)c3ccccc3)nccc12 | i
Cc1cc(Nc2ccc(NC(=O)c3ccco3)cc2)nc(N2CCCC2)n1 | i
COc1ccc(/C=C/C(=O)Nc2cccc(C(F)(F)F)c2)cc1OC | i
C=CCOCC(O)Cn1c(NCc2ccco2)nc2c1c(=O)[nH]c(=O)n2C (centres undefined) | i
CC1Nc2cccnc2NC1C (centres undefined) | i

Structural class, those above containing a CF3 group (5)
SMILES | GIRK2 activ
O=C(C1CN(c2nc3c(C(F)(F)F)cccc3s2)C1)N1CCN(c2ccccc2O)CC1 | i
Cc1cn(-c2ccc(SCC(=O)Nc3cc(C(F)(F)F)ccc3Cl)nn2)cn1 | i
COCCCn1cnc2c(-c3ccccc3)cn(CC(=O)Nc3cccc(C(F)(F)F)c3)c2c1=O | i
CN1CCN(c2nnc(SCC(=O)Nc3ccccc3C(F)(F)F)s2)CC1 | i
COc1ccc(/C=C/C(=O)Nc2cccc(C(F)(F)F)c2)cc1OC | i

(listing goes on)
SMILES | GIRK2 activ
COC(=O)c1cnc2cc(C(F)(F)F)ccc2c1OC | i
O=C(NCCNS(=O)(=O)c1cccc(Cl)c1)c1ccc(NC(=O)C2CC2)cc1 | i
O=C(c1cn(-c2cccc(Cl)c2)nn1)N1CCc2ccccc2C1 | i
Cn1nc(CNC(=O)Nc2cccc(C(F)(F)F)c2)c2c1CCCC2 | i
Cc1cc(C(O)CCNC(=O)C(=O)Nc2ccc3c(c2)N(C(=O)C(C)C)CCC3)c(C)o1 (centres undefined) | i
CS(=O)(=O)Nc1cccc(NC(=O)C(c2ccccc2)n2cccc2)c1 (centres undefined) | i
Cc1ccc(NC(=O)NCC#CCN2CCCC2)cc1C | i
CCc1ccc(-c2[nH]ncc2C(=O)N2CCC(NC(=O)c3ccc(OC)cc3)CC2)cc1 | i
COCCN1CCC(CNC(=O)C(=O)NCC(F)(F)F)CC1 | i
Cn1c(-c2nc(C(=O)Nc3ccccc3)cs2)cc2ccccc21 | i
Cn1c(C2CCC(CNC(=O)Cn3c(=O)oc4ccccc43)CC2)nc2ccccc21 (centres undefined) | i
O=C(CCC1NC(=O)c2ccccc2NC1=O)NCCc1ccccc1 (centres undefined) | i
Cc1cccc(C)c1NC(=O)Cn1c(C)nc2c(sc3ccccc32)c1=O | i
COc1ccc(-n2ncc3c(=O)n(Cc4nc(-c5cc(OC)c(OC)c(OC)c5)no4)cnc32)cc1 | i
N#Cc1cc(Br)ccn1 | i
CC1CCN(c2cc(NC(=O)Cn3cccc3)ncn2)CC1 | i
COc1ccc(CCC(=O)N2CCN(Cc3nc4ccccc4n3C)CC2)cc1 | i
Cn1nc(-c2ccc(F)cc2)cc1C(=O)Nc1ccc(CC(=O)NC(C)(C)CO)cc1 | i
O=S(=O)(c1cccs1)N1CCC(Oc2ccccn2)CC1 | i
O=C(NC1CCCCCC1)C1CCN(c2cc(Oc3ccccc3)ncn2)CC1 | i
CC(=O)Nc1sc2c(c1-c1nc3ccccc3s1)CCN(C(C)=O)C2 | i
O=C(c1ccc2c(=O)nc3c(-c4ccccc4F)n[nH]n3c2c1)N1CCN(C2CCCCC2)CC1 | i
Cc1ccc(S(=O)(=O)N2CCN(CC(O)COc3ccc4ccccc4c3Cl)CC2)cc1 (centres undefined) | i
Cc1ccc(C)c(C(=O)NCCC(O)c2ccc3c(c2)OCO3)c1 (centres undefined) | i
COc1ccc2c(=O)c3c(=O)n(-c4ccc(C)cc4)c(-c4ccccc4)nc3oc2c1 | i
Next section:
SMILES | GIRK2 activ
Cc1cc(=O)[nH]c(-n2ncc(C(=O)NCCC3=CCCCC3)c2C)n1 | i
c1csc(-c2noc(C3CN(Cc4ccoc4)C3)n2)c1 | i
CSc1cccc(NC(=O)Cn2c(C)cc(C)c(-c3nc(-c4ccccc4)no3)c2=O)c1 | i
Cc1cc(C)n(-c2cc(N3CCN(C(=O)c4snnc4C)CC3)ncn2)n1 | i
O=C(COc1ccc(-n2cccn2)nn1)Nc1ccc2c(c1)OCO2 | i
CCOc1ccc(NC(=O)COc2cc(C)nc(N3CCCCCC3)n2)cc1 | i
CCOC(=O)c1cn[nH]c1S(=O)(=O)N(CC)c1cccc(C)c1 | i
Cc1cc(C(=O)Nc2nc3c(s2)CN(C(=O)CSc2ccc(F)cc2)CC3)no1 | i
COc1ccc(S(=O)(=O)NCC2(c3ccc(F)cc3)CC2)cc1F | i
COc1nn(C)cc1C(=O)Nc1nnc(-c2sc(C)nc2C)o1 | i
CCc1cccc(C)c1NC(=O)CN1N=NC2C(=O)N(c3ccc(OC)c(Cl)c3)C(=O)C21 (centres undefined) | i
CC(C)N=C1SC(CC(=O)O)C(=O)N1C(C)C (centres undefined) | i
Cn1cc(C2=C(c3ccc(N)cc3)C(=O)NC2=O)c2ccccc21 | i
CCNS(=O)(=O)c1cccnc1Nc1ccc(Cl)cc1 | i
CCOC(=O)c1ccc(Oc2c(C(F)(F)F)oc3cc(OC(=O)N(C)C)ccc3c2=O)cc1 | i
COc1ccc(CNC(=O)CSc2nc3c(sc(=S)n3-c3ccccc3)c(=O)[nH]2)cc1 | i
CC(=O)Nc1ccc2c(c1)c(C1=C(c3cn(C)c4ccccc34)C(=O)NC1=O)cn2C | i
CCn1cc(C(=O)Nc2nc(C)cs2)c(=O)c2cc(OC)ccc21 | i
Cc1c(Cl)ccc2sc(N(Cc3ccncc3)C(=O)c3ccc(C#N)cc3)nc12 | i
COc1ccccc1NC(=O)CSc1ncc(S(=O)(=O)c2cccc(C(F)(F)F)c2)c(=O)[nH]1 | i
CN(C)CC1COCCN1C(=O)c1cnc2ccccc2n1 (centres undefined) | i
CCOc1ccccc1-c1noc(CSc2nc3cc4c(cc3c(=O)n2C)OCO4)n1 | i
O=S(=O)(Nc1ccc2c(c1)N(S(=O)(=O)c1ccccc1)CCC2)c1ccc(F)cc1 | i
Cc1cn2c3c(=O)n(Cc4ccccc4)c(=O)n(C)c3nc2n1C(C)C | i
COc1ncccc1C(=O)NCC#CCOc1cccc(C(F)(F)F)c1 | i
COc1ccc(CCNC(=O)NCC2CC(=O)N(c3ccc(Cl)cc3)C2)cc1 (centres undefined) | i
COc1ccc(N2CCN(Cc3nc4c(c(=O)n(C)c(=O)n4C)n3C(C)C(C)=O)CC2)cc1 (centres undefined) | i
COc1cccc(S(=O)(=O)N2CCC(CSCc3ccco3)CC2)c1 | i
